# Polio RdRp inh – poliovirus RNA polymerase inhibition; 150,000 compounds, 0.66% hits; % elongation, % (compound at 16.7 µg/mL); poliovirus polymerase elongation, fluorescence polarization; stronger effect = lower value; AID 588519; in the data active = % elongation below about 90%; also: some results filed as inactive read as strong as hits
# Target sequence (P03300 1749-2209 limits assumed): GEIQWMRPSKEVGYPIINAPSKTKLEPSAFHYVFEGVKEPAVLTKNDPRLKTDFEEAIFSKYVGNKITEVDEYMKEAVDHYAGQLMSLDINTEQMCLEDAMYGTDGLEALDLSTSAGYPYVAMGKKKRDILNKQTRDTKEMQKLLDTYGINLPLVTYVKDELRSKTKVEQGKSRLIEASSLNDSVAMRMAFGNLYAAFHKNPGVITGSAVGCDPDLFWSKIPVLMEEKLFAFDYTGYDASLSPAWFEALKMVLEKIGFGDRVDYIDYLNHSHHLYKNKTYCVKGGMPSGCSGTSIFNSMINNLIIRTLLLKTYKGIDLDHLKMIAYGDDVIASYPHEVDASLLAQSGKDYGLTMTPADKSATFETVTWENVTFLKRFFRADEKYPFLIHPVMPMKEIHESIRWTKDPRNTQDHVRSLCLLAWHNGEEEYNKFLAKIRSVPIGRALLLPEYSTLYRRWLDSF
# Mtb MbtI inh – blocks the Mycobacterium tuberculosis siderophore enzyme MbtI; P9WFX0; purified MbtI enzyme, fluorescence intensity read-out; inhibition, %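 (about 17 µg/mL by stock and volumes)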; 100,000 compounds, 0.89% hits;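 active = above 50% in both replicates, above 80% if mildly self-fluorescent; inactive = the rest, strongly fluorescent compounds included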;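 also: 0% = mean of negative and 100% = mean of positive controls; one replicate is shown; some compounds called inactive have numbers as strong as hits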
# Target sequence (P9WFX0 whole entry, looked up): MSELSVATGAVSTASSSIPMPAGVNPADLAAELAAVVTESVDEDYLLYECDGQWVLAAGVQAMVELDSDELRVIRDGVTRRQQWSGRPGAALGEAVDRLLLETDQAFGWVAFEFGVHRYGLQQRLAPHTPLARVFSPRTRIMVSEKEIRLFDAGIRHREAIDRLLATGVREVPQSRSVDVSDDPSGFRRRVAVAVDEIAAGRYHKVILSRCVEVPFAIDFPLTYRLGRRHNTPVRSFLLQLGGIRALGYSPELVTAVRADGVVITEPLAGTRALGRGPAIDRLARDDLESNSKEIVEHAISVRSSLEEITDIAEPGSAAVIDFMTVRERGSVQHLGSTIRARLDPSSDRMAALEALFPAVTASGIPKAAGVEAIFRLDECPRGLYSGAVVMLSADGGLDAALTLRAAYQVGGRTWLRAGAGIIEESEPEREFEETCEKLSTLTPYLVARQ
# MenB inh – inhibitors of Mycobacterium tuberculosis MenB enzyme. MenB enzyme assay, absorbance read-out; some hits fall short of the stated cut. P9WNP5. 100,000 compounds, 0.43% hits. inhibition, %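 (about 12 µg/mL by stock and volumes)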;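 active = mean of two replicates above 30%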;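 also: 0% = no compound and 100% = wells with inactive enzyme; the first replicate is given; strong numbers were not always called active; inactives centre near -10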
# Polio RdRp inh intensity – further read-out of Polio RdRp inh, marked with its call; % elongation; measured here: total intensity read-out; formula for this scale not given here;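 total fluorescence in place of polarization; lower means less elongation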
# An asterisk follows results filed as active; nt = not tested or not shown; & = joins results of further samples.
# Results follow in this order: Polio RdRp inh, Polio RdRp inh intensity, Mtb MbtI inh, MenB inh
- COc1ccc(N2CCN(CC(O)COc3ccccc3)CC2)cc1 (configuration not stated)
  99, 102, -4, 14
- Cc1nc(CSc2nc(N)c(C#N)cc2C#N)cs1
  111, 137, 37, -39
- CC1(C(=O)Nc2ccccc2)Cc2ccccc2C(=O)O1 (configuration not stated)
  102, 101, -1, -9
- CC(C)(C)c1ncc(S(=O)(=O)c2ccc(C(F)(F)F)cn2)c(N)n1
  103, 93, -3, -25
- CC(=O)Oc1ccccc1C(=O)NCCC1=CCCCC1
  104, 98, -471, -18
- COC(=O)N/N=C/c1ccccc1Br
  102, 105, 1, -8
- CCc1nnc(NC(=O)Cc2coc3ccc(C)cc23)s1
  102, 96, -8, 2
- CC(CCc1ccccc1)NC(=O)C(C)N1CCN(C(=O)c2ccccc2)CC1 (configuration not stated)
  103, 99, 2, 5
- CC1=CC(=O)/C(=C2/Sc3ccccc3N2C)C(=O)O1
  131, 160, 15, -23
- NCCCCCC(=O)O
  103&100, 96&103, -17&-14, -17&14
- O=C(C1CCCN1C(=O)c1cccs1)N1CCN(S(=O)(=O)Cc2ccccc2)CC1 (configuration not stated)
  104, 93, 8, -32
- NC(=S)N1N=CCC1(O)C(F)(F)F (configuration not stated)
  106, 108, 12, -26
- Cc1ccccc1NC(=O)N(Cc1ccco1)C(=O)CC#N
  104, 109, -5, -1
- CN(C(=O)C1CCCCC1C(=O)O)c1ccccc1 (configuration not stated)
  100, 100, -1, -12
- CN(Cc1ccccc1)Cc1c(O)ccc2ccccc12
  102, 102, nt, 2
- O=C(c1ccc(Cl)cc1)N1CCOCC1
  99, 103, -8, -11
- Cc1c(NC(=O)NCc2ccccc2)n(C)c(=O)n1-c1ccccc1
  103, 100, -16, -16
- Fc1ccccc1-c1nc(-c2cccc(C(F)(F)F)c2)no1
  102, 103, -5, -6
- Cc1ccccc1NC(=O)Nc1cc2sccc2n1C
  107, 109, 3, -10
- O=C(CCN1N=C(c2ccccc2)CCC1=O)NCCCN1CCCCCC1
  104, 103, -1, 4
- O=C1Nc2ccccc2O/C1=C\c1ccccc1
  103, 105, -137, -11
- COC(=O)C1=C(C)N(C)C(=O)NC1c1ccc(OC)c(Br)c1 (configuration not stated)
  106, 102, nt, -7
- CNC(=O)CCC(=O)Nc1cc(Cl)ccc1Cl
  103, 111, nt, -3
- Cc1ccc(Nc2nc(N)nc(CSc3nc4c(n3-c3ccccc3)CCCC4)n2)cc1
  107, 116, -31, -8
- Cn1nc(N2CCN(CC(=O)Nc3ccc(OC(F)(F)F)cc3)CC2)c(=O)n(C)c1=O
  107, 113, 5, -29
- CC1CC(=O)N(c2cccc(C(=O)O)c2)C1=O (configuration not stated)
  101, 107, 0, 12
- Cc1cc(C)nc(SCc2nnc(SC/C=C/c3ccccc3)o2)n1
  103, 108, 8, -23
- O=C(O)c1ccccc1NCc1ccccc1Cl
  101, 94, 27, nt
- CC1CCC(NC(=O)c2cncc(Br)c2)CC1 (configuration not stated)
  97, 101, -11, 0
- CC(Oc1ccc(Cl)cc1Cl)C(=O)Nc1ccc2oc(-c3ccncc3)nc2c1 (configuration not stated)
  102, 103, -80, -34
- Cn1ccnc1SCCN
  100, 100, -12, -85
- O=C(NCCCN1CCOCC1)NCc1cccc2ccccc12
  107, 111, -11, 2
- CC(c1ccccc1)N1C(=O)NC(=O)/C(=C/c2coc3ccccc3c2=O)C1=O (configuration not stated)
  97, 100, 8, -19
- COc1cc(CNCc2ccco2)ccc1OCC(N)=O
  105, 103, -9, -44
- CCCCN1C(=O)c2ccc(C(=O)N3CCc4ccccc43)cc2C1=O
  103, 97, -4, -10
- COC(=O)c1ccc(CNC(=O)C(C)Sc2ccccc2)cc1 (configuration not stated)
  103, 104, 7, -4
- CCN(CC(=O)NCc1ccc(F)cc1)C(=O)Cn1c(C)nc2ccccc21
  104, 111, -8, -3
- CN(C)C(=S)SCC(=O)N1c2ccccc2NC(=O)C1(C)C
  107, 105, -7, -25
- CC[C@@H](C(=O)C(C)[C@@H](O)[C@H](C)CCc1ccc(C)c(O)c1C(=O)O)C1OC(CC)(C2CC[C@](O)(CC)[C@H](C)O2)C[C@@H]1C (some centres not stated)
  101, 101, -213, -7
- Cc1ccccc1N1C(=O)c2ccccc2S1(=O)=O
  104, 106, -14, -6
- CCc1ccc(NC(=O)c2cnc3ccccn3c2=O)cc1
  102, 105, 1, 1
- CCOC(=O)CC(N)c1ccc(C)cc1 (configuration not stated)
  104, 105, -8, 7
- COc1ccc(NC(=O)C(NS(=O)(=O)c2ccc3c(c2)oc(=O)n3C)C(C)C)c(OC)c1 (configuration not stated)
  103, 106, -10, -8
- CC(NCC1OCc2ccccc2CO1)c1ccccc1 (configuration not stated)
  106, 99, nt, 6
- CCOC(=O)C1=C(CN(Cc2ccco2)C2CCCC2)NC(=O)NC1c1ccc(Cl)cc1 (configuration not stated)
  101, 93, 2, -36
- O=C(Cc1ccc(Cl)cc1)OCC(=O)N1CCCCCC1
  102, 107, -9, nt
- CC(C)c1nc(/N=C/N(C)C)nc(=O)n1C
  105, 103, 7, 4
- Cc1c(CN(C)C(=O)CSc2nc(-c3ccco3)cc(C(F)(F)F)n2)cnn1C
  100, 102, 12, -2
- CCOC(=O)c1ccc(NN)cc1
  99, 100, 18, -77
- Cn1cc(S(=O)(=O)N2CCOCC2)cc1C(=O)N(CCc1ccccc1)Cc1ccccc1
  101, 101, -17, -3
- Cc1ccc(-n2c(C)cc(C3=NN=C(N)SC3)c2C)cc1C
  105, 111, 0, -51
- Cc1ccccc1NC(=O)c1cc2c(s1)-c1ccccc1S(=O)(=O)C2
  103, 105, 4, -9
- S=C(Cc1ccc2c(c1)OCCO2)N1CCOCC1
  83*, 83*, 92*, -49
- O=C1NCCN1C(=O)c1cccc(Cl)c1
  105, 112, nt, 3
- Cc1ccc(O)c(C2(O)C(=O)c3ccccc3C2=O)c1
  97, 99, -1, -52
- CC(=O)N(CCCCN1C(=O)c2ccccc2C1=O)c1ccc(C)cc1
  104, 102, -4, -12
- CCc1cc(=O)oc2cc(C)cc(OCC(=O)C(C)(C)C)c12
  102, 98, -10, -14
- COc1ccccc1Cn1ccn(CC(=O)NCCc2ccccc2)c(=O)c1=O
  104, 103, -2, -1
- Cc1ccc(C)c([C@H]2[C@H](C(=O)c3ccccc3)N3c4ccccc4C=CC3C2(C#N)C#N)c1 (some centres not stated)
  134, 178, nt, -37
- Nc1c(C(=O)c2ccccc2)sc2nc3c(cc12)CCCC3
  104, 105, 2, -11

# (further entries)
# Results follow in this order: Polio RdRp inh, Polio RdRp inh intensity, Mtb MbtI inh, MenB inh
- COc1cc(Cl)c(C)cc1NCC(O)Cn1nnnc1-c1ccccc1 (configuration not stated)
  104, 98, 2, -2
- CCC(=O)OC1(C)CC2CC(CN(C(=O)C3CCCCC3)C2)C1 (configuration not stated)
  101, 98, -10, nt
- COC(=O)c1ccccc1NC(=O)Nc1nnc(N2CCCC2)s1
  100, 102, 22, 6
- CC(=O)Oc1ccc(C(C)(C)c2ccc(OC(C)=O)cc2)cc1
  105, 108, nt, -11
- O=C(Nc1ccc(N2CCOCC2)cc1)Nc1ccc2nc(-c3ccco3)c(-c3ccco3)nc2c1
  103, 104, -13, -93
- CCn1nccc1C(=O)NC1=C(C#N)CCC1
  100, 108, -2, -8
- O=C(c1ccc2nccnc2c1)N1CCCc2ccccc21
  101, 105, 1, -9
- COc1cc(OC)c(NC(=O)C2CCCN(S(=O)(=O)c3ccc4c(c3)oc(=O)n4C)C2)cc1Cl (configuration not stated)
  101, 102, -11, -19
- O=C(CSCc1ccco1)NC1CC1
  104, 102, -3, nt
- CC1CN(Cc2ccccc2)c2ccccc2NC1=O (configuration not stated)
  105, 102, -10, -17
- COc1ccc(OC)c(NC(=S)NCCc2cnc[nH]2)c1
  102, 103, -7, 4
- CC1=C(C(=O)NCCN2CCCC2)C2(CCCCCC2)OC1=O
  105, 100, -16, -30
- O=C(O)c1cccc(COc2ccc(Cl)cc2)c1
  101, 97, 5, nt
- Cc1ccc(S(=O)(=O)N2CCN(Cc3ccc4c(c3)OCO4)CC2)cc1C
  100, 100, -11, -7
- O=C(CSc1nnc(-c2ccncc2)o1)NC(=O)Nc1ccccc1
  104, 99, -6, -133
- NS(=O)(=O)c1cc(C(=O)NCC2CCCCC2)ccc1Cl
  107, 108, -2, 8
- Cc1ccccc1C(=O)NC1CCN(Cc2nnnn2C2CCCC2)CC1
  107, 100, -6, -40
- CCNC(=O)Nc1n[nH]c(-c2ccccc2)n1
  102, 101, -6, -26
- CCNc1nc(NCC)n2c(SCC(=O)NC34CC5CC(CC(C5)C3)C4)nnc2n1
  98, 99, -8, -36
- CCCN(CC1CC1)C(=S)Nc1ccccc1OC
  103, 101, -1, -35
- Cc1cccn2c(=O)c3cc(C(=O)N4CC(C)OC(C)C4)n(C)c3nc12 (configuration not stated)
  102, 100, -111, -8
- CC1CCCN(C(=O)Cc2noc3ccccc23)C1 (configuration not stated)
  100, 102, -17, 6
- Cn1c(-c2ccccc2O)n[nH]c1=S
  101, 103, 32, 11
- CC(C)(C)NC(=O)CSc1nc2ccccc2[nH]1
  106, 109, 2, -12
- O=C(c1ccccc1)N(Cc1nc2ccccc2c(=O)[nH]1)C1CCCC1
  102, 101, 5, -35
- C=CCNC1(C)CCS(=O)(=O)C1 (configuration not stated)
  100, 96, -2, nt
- O=C1CC2CCC(CN1)N2CC(=O)Nc1ccc(F)cc1 (configuration not stated)
  101, 103, -9, -26
- CC(C)(C)c1ccc(-c2noc(C(=O)NN)n2)cc1
  101, 99, 2, 6
- Cc1cc(C(=O)Nc2cccc(C(F)(F)F)c2)no1
  101, 102, -6, -16
- CN(Cc1ccccc1)C(=O)c1cc(-c2ccccc2)n[nH]1
  102, 98, 1, 4

# Two entries picked at random from those above:
# Results follow in this order: Polio RdRp inh, Polio RdRp inh intensity, Mtb MbtI inh, MenB inh
- COc1ccc(OC)c(NC(=S)NCCc2cnc[nH]2)c1
  102, 103, -7, 4
- O=C(c1ccc2nccnc2c1)N1CCCc2ccccc21
  101, 105, 1, -9

# Molecules shown so far with two or more sulfur atoms, in the order listed:
# Results follow in this order: Polio RdRp inh, Polio RdRp inh intensity, Mtb MbtI inh, MenB inh
- Cc1nc(CSc2nc(N)c(C#N)cc2C#N)cs1
  111, 137, 37, -39
- O=C(C1CCCN1C(=O)c1cccs1)N1CCN(S(=O)(=O)Cc2ccccc2)CC1 (configuration not stated)
  104, 93, 8, -32
- Cc1cc(C)nc(SCc2nnc(SC/C=C/c3ccccc3)o2)n1
  103, 108, 8, -23
- CN(C)C(=S)SCC(=O)N1c2ccccc2NC(=O)C1(C)C
  107, 105, -7, -25
- Cc1ccccc1NC(=O)c1cc2c(s1)-c1ccccc1S(=O)(=O)C2
  103, 105, 4, -9

# Later entries:
# Results follow in this order: Polio RdRp inh, Polio RdRp inh intensity, Mtb MbtI inh, MenB inh
- Cc1cc(CNC(=O)NCc2ccco2)c(C)n1-c1ccc(F)cc1
  102, 106, 6, -19
- CN=C(Nc1ccc(C(=O)OC)s1)c1ccccc1
  103, 108, 17, -17
- O=C(Cc1nc2ccccc2s1)c1ccccc1
  72*, 73*, -8, nt
- OC(C#Cc1ccccc1)c1cccs1 (configuration not stated)
  103, 106, -12, -2
- COc1cc2c(C(=O)N3CCN(c4ccccc4C)CC3)c(C)oc2cc1Br
  103, 100, 1, 9
- C1=C(C23CC4CC(CC(C4)C2)C3)SC2=NCCN12
  99, 107, 69*, -7
- Nc1ccccc1C12CC3CC(CC(C3)C1)C2
  99, 104, -3, nt
- COC(=O)c1ccc(CO/N=C/c2ccc(OC)cc2)o1
  102, 103, 2, -17
- CCn1c(=O)c2c(n(Cc3ccccc3)c1=O)NC1=C(C(=O)CCC1)C2c1ccc(OC)cc1 (configuration not stated)
  96, 101, -9, -10
- O=C1/C(=C/c2ccccn2)CC(c2ccccc2)C/C1=C\c1ccccn1 (configuration not stated)
  102, 104, 57, -19
- OC1COC(Oc2ccccc2)C(O)C1O (configuration not stated)
  102, 102, -5, -18
- Cc1cc(-c2cn(/N=C/c3ccc(Cl)cc3Cl)c(N)n2)c(C)s1
  101, 101, -4, 1
- CCN1C(=O)CCS(=O)(=O)c2ccccc21
  101, 96, 2, -1
- CCN1C(=O)/C(=C\c2cc(C)n(CC(F)(F)F)c2C)SC1=S
  107, 113, -11, nt
- Cc1ccc2[nH]c(=O)c3cc(C(=O)NCCCN4CCN(c5ccc(F)cc5)CC4)sc3c2c1
  102, 97, -6, -19
- CCNC(=S)N1CCn2cccc2C1c1cccnc1 (configuration not stated)
  102, 102, 1, -2
- O=C(Nc1ccccc1C(=O)OCn1nnc2ccccc2c1=O)c1ccco1
  98, 100, 35, 1
- CCOC(=O)c1cnc2c(C)c(Cl)ccc2c1NCCN(C)C
  104, 101, -5, -6
- CCc1cccc(O[C@@H]2O[C@@H]3COC(c4ccccc4)O[C@H]3[C@H](O)[C@H]2NC(C)=O)c1 (some centres not stated)
  106, 105, 0, -20
- c1cc2nc3c(nc2c2nonc12)CCCC3
  102, 103, -6, -35
- Cc1cccc(C(=O)OC(C)CN2C(C)CCCC2C)c1 (configuration not stated)
  105, 102, -5, 0
- COc1cc(OC)cc(C(=O)c2c(C)c(C#N)c3ccccn23)c1
  101, 99, 0, nt
- CC(C)(C)SC(C(=O)N1CCOCC1)c1ccc(Br)cc1 (configuration not stated)
  99, 97, -3, nt
- O=C(Nc1ccc(S(=O)(=O)Nc2ncccn2)cc1)C1CC(=O)N(c2ccccc2)C1 (configuration not stated)
  105, 103, -4, -38
- CCCCC(=O)c1c(O)c2ccccc2oc1=O
  102, 102, 8, -27
